Screening data (PubChem)
ClpP mod = qHTS Assay for Activators of ClpP. AID 651965, 2013. Potency, µM (series often up to 57.5 µM), for the others: at the top dose activity change, negative = active. ATP-dependent Clp protease proteolytic subunit (Bacillus subtilis (strain 168)), P80244. 340,000 compounds, 1.9% hits. purified B. subtilis ClpP, FRET peptide cleavage, 20 min; active = well fitted falling curve with a large enough effect; inconclusive = small, poorly fitted or top-dose-only effect; inactive = no such curve, though single readings can be large or run the other way; also: potency is read from the fitted curve at half-maximal effect; the source files actives as falling curves though it sought activators and does not explain the sign; nearly all actives have a fitted effect of over 65% in size; many hits overshoot -100%
Target sequence (P80244 whole entry, looked up): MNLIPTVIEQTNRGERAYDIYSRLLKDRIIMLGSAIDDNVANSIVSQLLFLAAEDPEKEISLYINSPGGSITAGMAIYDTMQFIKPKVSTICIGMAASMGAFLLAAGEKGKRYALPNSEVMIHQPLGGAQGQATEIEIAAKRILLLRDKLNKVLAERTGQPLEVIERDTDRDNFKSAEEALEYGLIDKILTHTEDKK
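Buffer: 100 mM Tris/HCl pH8, 100 mM KCl, 0.05% low protease BSA, 2.5% glycerol, 0.01% Tween-20. ClpP 10 microg/mL final; 20 min RT; delta FRET normalized to ADEP and DMSO controls.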
TRPML1 ag = activates the human TRPML1 channel; AID 624414; activation, % (test concentration not listed); TRPML1-expressing cells, Ca2+ dye fluorescence, FDSS; host cell line not named in the record; reference of the full effect not given here; Q9GZU1; 410,000 compounds, 0.12% hits; in the data active = activation above about 50%; inconclusive = about 30% to 50%; inactive = below about 30%; also: 0% is about no effect; the text of the record puts the active cut at 80%
Target sequence (Q9GZU1 whole entry, looked up): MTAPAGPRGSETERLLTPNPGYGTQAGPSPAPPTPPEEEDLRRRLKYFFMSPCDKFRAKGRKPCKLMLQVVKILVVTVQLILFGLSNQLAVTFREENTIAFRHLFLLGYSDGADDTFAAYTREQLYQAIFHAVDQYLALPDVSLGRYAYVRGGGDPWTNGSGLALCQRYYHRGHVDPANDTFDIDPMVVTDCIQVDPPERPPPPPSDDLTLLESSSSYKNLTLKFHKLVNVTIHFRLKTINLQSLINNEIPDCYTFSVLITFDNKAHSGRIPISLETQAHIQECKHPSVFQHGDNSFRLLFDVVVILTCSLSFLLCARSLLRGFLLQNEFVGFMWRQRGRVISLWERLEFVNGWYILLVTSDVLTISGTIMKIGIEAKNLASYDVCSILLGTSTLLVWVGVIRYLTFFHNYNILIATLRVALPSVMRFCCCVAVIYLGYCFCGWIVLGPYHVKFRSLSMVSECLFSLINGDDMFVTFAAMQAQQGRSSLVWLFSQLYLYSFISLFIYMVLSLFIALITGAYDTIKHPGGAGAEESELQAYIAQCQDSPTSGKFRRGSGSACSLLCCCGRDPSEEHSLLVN
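Tetracycline-induced TRPML1-DL cells are seeded and incubated overnight before loading with a no-wash Ca2+ dye and quencher. Agonist activity is taken from the 110 s fluorescence read following compound pin-transfer on an FDSS, before EC80 54-4 challenge.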
gsp ag = gsp mutant agonism. gsp mutant cells, cAMP HTRF, 30 min; control for the full effect not named in the record. AID 624287. 340,000 compounds, 0.13% hits. Potency, µM (series often up to 76.9 µM), for inactives: at the top dose activation (cAMP increase), most hits filed as activators; active = well fitted activation curve with a large enough effect; inconclusive = small, poorly fitted or top-dose-only effect, or another doubt; inactive = no such curve, though single readings can be large or run the other way; cell line not stated here;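 also: phosphodiesterase inhibitor Ro 20-1724 added with compounds to block cAMP breakdown; potency is read from the fitted curve at half-maximal effect; nearly all actives have a fitted effect of over 60% in size; about a fifth of the inactives were tested at one dose only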
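Cells in DMEM/10% FBS with G418 were pretreated with compounds in DMSO plus […] (300 uM stock) for 30 min at 37C. cAMP was measured by HTRF (cAMP-d2 plus anti-cAMP antibody-K) after 30 min at room temperature.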
Menin MLL FP FL = menin-MLL binding inhibition, fluorescein peptide | Fluorescence polarization, fluorescein-MLL peptide displacement from menin | FP activity change, % at 61.4 µM | 290,000 tested, under 10 active | AID 1766; inconclusive = falling polarisation curve, or a change in total fluorescence; inactive = total fluorescence flat and polarisation flat or rising; no compound was filed as active; the % refers to the polarisation; negative = inhibition;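 also: % of control where 0% means no effect; inhibitors lower the polarisation; unlabelled MLL peptide was the positive control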
gsp antag = antagonizes gsp, the McCune-Albright syndrome mutation; Potency, µM (titrated, usually from 76.9 µM), for inactives: top-dose activity change, negative = inhibition, hits mostly inhibitors; gsp-mutant cells, cAMP HTRF, 30 min; control for the full effect not named in the record; 340,000 compounds, 0.4% hits; active = falling curve of any shape with a large fitted effect; inconclusive = falling curve, mostly with a smaller effect; inactive = flat or rising curve; cell line not stated here;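 also: intracellular cAMP measured with PDE inhibitor Ro 20-1724 present during compound exposure; potency is read from the fitted curve at half-maximal effect; % is scaled to controls: 0 for no effect and ±100 for the full control effect; nearly all actives have a fitted effect of over 65% in size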
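Measurement of cellular cAMP by homogeneous time-resolved fluorescence following a 30 min compound exposure at 37C. The PDE inhibitor […] was present throughout; the assay buffer was DPBS with 0.05% BSA and 0.005% Tween 20.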
TRPML1 blocker = blocks the human TRPML1 channel | TRPML1-inducible cells, Ca2+ dye fluorescence, FDSS; active compounds read low; inhibition of EC80 agonist-evoked calcium signal | Q9GZU1 | 390,000 compounds, 0.02% hits | activity change, negative = inhibition, % (test concentration not listed); in the data active means activity change below about -50%; inconclusive means about -30% to -50%; inactive means above about -30%;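 also: stimulus is agonist 54-4 at its EC80 concentration; % is scaled to controls: 0 for no effect and ±100 for the full control effect; compound concentration not given in the record; the text of the record puts the active cut at -80%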
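TRPML1-DL cells, Tet-induced overnight (~16 h, 37 °C) at 1,500 cells/well, were loaded with Ca8 no-wash dye plus quencher for 45-90 min at room temperature. Compounds were pinned during FDSS kinetic reading; agonist 54-4 at EC80 (4 uM final) then added.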
* hit, by the source's call; ? = inconclusive; / = no result given; [ ] = remark or other dose.

SMILES | ClpP mod | TRPML1 ag | gsp ag | Menin MLL FP FL | gsp antag | TRPML1 blocker
CCC(C)Nc1sc(S(=O)(=O)CC)nc1S(=O)(=O)c1ccc(C)cc1 (configuration not stated) | 0.1% | 1.3 | / | / | / | -27
COc1ccc(NS(=O)(=O)c2cccc(C(=O)NCCc3ccc(S(N)(=O)=O)cc3)c2)cc1 | 0.3% | -1.0 | 3% | / | 3% | 4
O=C(C=Cc1ccccc1O)c1ccccc1O | / | 0.7 | -34%[inhibitor] | / | -8% | 31
CC(C)(C)CC(=O)Nc1cc2c3c(c1)CCC(=O)N3CCC2 | -1.2% | -0.5 | ? | 2.4 | 5% | -15
O=[N+]([O-])c1ccc(N/N=C/c2ccccc2)cc1 | / | 2.7 | 3%[15.4 µM] | ? | -7% | 19
[N-]=[N+]=NC[C@H](Cc1ccccc1)N1CC[C@@H](OCc2ccccc2)CCC1=O | -4.2% | -0.6 | / | -6.8 | 1% | 8
Cc1ccc(NC(=O)c2ccc(S(=O)(=O)C(F)F)cc2)c(C)c1 | -13% | -0.5 | -5%[15.4 µM] | 0.1 | -5% | 0
N/C(Cc1ccccc1Sc1ccccc1)=N\O | -23% | 0.1 | 27%[15.4 µM] | 1.7 | 6% | 1
Cc1cc(NC(=O)COC(=O)c2c(C)c(C)c(C)c(C)c2C)no1 | 1.3% | 2.0 | -2%[15.4 µM] | / | 3% | 4
Cc1cc(-c2ccccc2)nc(SCC(=O)c2cccc([N+](=O)[O-])c2)n1 | 1.0% | 0.2 | ? | 1.2 | -7% | 6
CC1CCC(NC(=O)CCn2ccc3cc(S(=O)(=O)N4CCCC4)ccc32)CC1 (configuration not stated) | -5.2% | 1.8 | -64%[inhibitor] | -1.2 | -9% | 25
COc1ccccc1CNC(=O)COC(=O)CC1CC2CCC1C2 (configuration not stated) | -1.1% | 5.0 | 15% | / | 13% | -15
CCOCCCN1CN(Cc2ccco2)CNC1=S | 0.0% | 0.0 | -11% | -2.8 | -1% | -7
COCCNC(=O)c1ccccc1NC(=O)C1COc2ccccc2O1 (configuration not stated) | -2.6% | 0.7 | 3% | 0.3 | -7% | 1
CCN(CC)c1ccc(S(=O)(=O)N2CCOCC2)cc1NC(=O)CSc1cccc[n+]1[O-] | -1.3% | -0.1 | ? | / | 2% | 1

Rewritten as comma-separated lines: 2 of the compounds above.
smiles,ClpP mod,TRPML1 ag,gsp ag,Menin MLL FP FL,gsp antag,TRPML1 blocker
CCC(C)Nc1sc(S(=O)(=O)CC)nc1S(=O)(=O)c1ccc(C)cc1 (configuration not stated),0.1%,1.3,/,/,/,-27
COc1ccc(NS(=O)(=O)c2cccc(C(=O)NCCc3ccc(S(N)(=O)=O)cc3)c2)cc1,0.3%,-1.0,3%,/,3%,4

Additional structures
SMILES | ClpP mod | TRPML1 ag | gsp ag | Menin MLL FP FL | gsp antag | TRPML1 blocker
Cc1ccc2c(=O)n3c(nc2c1)C(Cc1ccccc1)NC(=O)c1cccnc1-3 (configuration not stated) | -1.4% | -0.4 | ? | / | / | 4
CCOc1ccc(-c2nc(C#N)c(N3CCN(Cc4ccccc4)CC3)o2)cc1 | 3.4% | 0.6 | ? | 2.6 | -5% | 62
COC(=O)C(O)(CC(=O)Nc1ccccc1OC)C(F)(F)F (configuration not stated) | 0.6% | -0.2 | -57% | 4.2 | -5% | 0
O=C(C1CCC(CNS(=O)(=O)c2ccc(Br)s2)CC1)N1CCN(c2ccc(F)cc2)CC1 (configuration not stated) | -1.6% | 4.9 | / | / | / | 7
CC(=O)c1ccc(-n2nncc2-c2ccc([N+](=O)[O-])cc2)cc1 | -1.5% | 0.1 | -1%[15.4 µM] | 1.3 | 2% | -17
O=C(Nc1ncc2c(n1)-c1ccccc1OC2)c1ccc(F)cc1 | / | -0.3 | 10%[15.4 µM] | 4.3 | -30% | -4
CCC(=O)c1ccc(OCC(O)CN2CCN(c3ccc(F)cc3)CC2)cc1 (configuration not stated) | -1.8% | -0.9 | 1% | -1.3 | 2% | 10
O=C(CN1CCCC1)Nc1ccc(Cl)cc1C(F)(F)F | 1.3% | 0.0 | 5% | 0.4 | 10% | 1
COc1ccc(C(=O)c2ccc(N(C)C)cc2)c2ccccc12 | -2.3% | 1.5 | 10% | 2.7 | 9% | 13
O=C(Cc1ccc(S(=O)(=O)N2CCCC2)s1)Nc1nc2c(s1)CCCC2 | -1.7% | 0.5 | -8% | ? | 2% | 24
O=C(NN=C1CCCC1)c1ccc(O)cc1 | -1.1% | 0.0 | -7% | 0.0 | 7% | 1
NC(=O)c1cc(S(=O)(=O)N2CCN(c3cccc(C(F)(F)F)c3)CC2)cs1 | 0.5% | -0.1 | / | / | / | -10
O=C(O)/C=C/C(=O)Nc1ccc(OC(F)F)cc1 | -0.6% | 0.0 | -129%[inhibitor] | -0.6 | 0% | 17
O=C1c2ccccc2C(=O)N1CCC#Cc1ccc2cc(CCO)oc(=O)c2c1 | 4.1% | -0.2 | ? | / | 2% | 35
COc1ccc(C2CC2C(C)=O)cc1 (configuration not stated) | / | -0.1 | -37%[inhibitor] | -0.5 | 0% | 3
CCOc1[nH]n(-c2ccc(Cl)cc2)c(=O)c1C=Nc1ccc(OC)cc1 | -0.6% | -0.9 | 14% | 2.8 | 12% | -1
CC1(c2ccccc2)CC(C)(C)N(C(=O)CSc2nnc(N)s2)c2ccccc21 (configuration not stated) | 0.0% | 0.0 | -21% | / | ? | -26
COc1ccc(C2/C(=C(\O)c3ccc4c(c3)OCCO4)C(=O)C(=O)N2CCCN(C)C)cc1 (configuration not stated) | -0.3% | -0.8 | 2% | -1.8 | 10% | 9
CC1CCCC(N2CCN(C(=O)c3ccc(F)cc3)CC2)C1 (configuration not stated) | 0.7% | 2.7 | 19% | / | 9% | -19
O=C1CSC(=Nc2ccc(F)cc2)N1 | -2.8% | 1.9 | 31% | -3.8 | 8% | -15
CCc1cccc(-n2nnc(-c3nc(-c4ccc5c(c4)OCO5)no3)c2C)c1 | -26% | 3.0 | / | / | / | 5
CCCc1cc(=O)oc2cc(OCC(=O)N3CCN(C(=O)C4COc5ccccc5O4)CC3)ccc12 (configuration not stated) | 3.9% | -1.4 | 3% | / | -22% | -6
O=c1c2ccccc2nc2n1C(CBr)CN2 (configuration not stated) | -14% | 0.2 | 2% | 2.7 | 9% | -27
CCOC(=O)C1Nc2ccccc2C2c3ccccc3CC12 (configuration not stated) | 4.0% | 0.3 | / | / | 2% | -18
CC(NC(=O)c1cnc2ccccc2n1)c1ccccc1 (configuration not stated) | / | 1.5 | 19% | / | -3% | 8
COc1ccc(C=O)c(OCc2cn(CC(=O)c3ccc(O)cc3)nn2)c1 | -0.9% | -0.3 | / | / | -8% | 30
Cc1ccc(-c2nnn(Cc3nc4ccccc4s3)n2)cc1 | -1.7% | 3.1 | 7% | 3.1 | -9% | 3
Cn1cnnc1SCCn1c(N2CCCCC2)nc2c1c(=O)[nH]c(=O)n2C | 1.2% | 0.9 | 8% | -1.3 | 7% | 29
CCC1(C)Cc2c(sc3c2c(=O)n(-c2ccccc2)c(=O)n3C)CO1 (configuration not stated) | 0.0% | 2.6 | -18% | 2.5 | -6% | -5
CCOC(=O)c1ccc(N2C(=O)c3n[nH]c(C)c3C2c2cccnc2)cc1 (configuration not stated) | -1.3% | 0.9 | 1% | 3.8 | -20% | 8

Single entries from the entries so far:
gsp antag result of `CCC1(C)Cc2c(sc3c2c(=O)n(-c2ccccc2)c(=O)n3C)CO1` (configuration not stated) stands at -6%
Menin MLL FP FL result of `COC(=O)C(O)(CC(=O)Nc1ccccc1OC)C(F)(F)F` (configuration not stated) stands at 4.2
ClpP mod result of `CCc1cccc(-n2nnc(-c3nc(-c4ccc5c(c4)OCO5)no3)c2C)c1` stands at -26%
Menin MLL FP FL result of `COc1ccc(C2CC2C(C)=O)cc1` (configuration not stated) stands at -0.5

(list continues)
SMILES | ClpP mod | TRPML1 ag | gsp ag | Menin MLL FP FL | gsp antag | TRPML1 blocker
COc1ccc(C(=O)Nc2ccc3ccccc3c2)cc1 | -21% | 1.4 | 2% | 3.3 | 7% | 37
Cc1ccc(CNC(=O)c2ccc(CSCc3ccc(Cl)cc3)o2)cc1 | 0.1% | 3.3 | / | / | / | 19
CCOC(=O)c1sc2nccc(OC)c2c1N=CN(C)C | / | 0.6 | 13%[15.4 µM] | 2.6 | 0% | -4
CCN(C[C@H]1N[C@@](Cc2ccccc2)(C(=O)OC)[C@H]2C(=O)N(C)C(=O)[C@@H]12)S(=O)(=O)c1ccc(OC)cc1 | -1.0% | -1.0 | / | / | -15% | 7
Cc1noc(C)c1NC(=O)N(C)C[C@H]1Oc2ccc(NC(=O)NC(C)C)cc2C(=O)N([C@H](C)CO)C[C@@H]1C | -1.0% | -0.6 | 20% | / | 13% | -4
CCOC(=O)c1c(NC(=O)CN2C(=O)NC3(CCC(C)CC3)C2=O)sc(C)c1CC (configuration not stated) | -1.2% | 0.5 | -1% | / | -7% | 9
CC(C)OP(=O)(c1ccc(N(C)C)cc1)C(Nc1ccccc1)c1cccnc1 (configuration not stated) | -1.0% | -0.4 | ? | 0.0 | -1% | 23
Cc1c(C(=O)NCc2cccc(Cl)c2)sc2nc3n(c(=O)c12)CCCC3 | -4.8% | -0.2 | / | / | / | -15
CC1=C(C(=O)N2CCOCC2)CC(CC(=O)NC2CCCCC2)C(=O)N1Cc1ccccc1 (configuration not stated) | -1.6% | -0.5 | -12% | / | / | 16
O=C(CSc1nncs1)Nc1ccc2c(c1)OCCO2 | -5.9% | 0.6 | 29% | 2.6 | -1%[15.4 µM] | -24
Cn1nc(C(=O)N2CCCc3ccccc32)c2ccccc2c1=O | 0.8% | 1.5 | -60%[inhibitor] | 0.6 | 6% | 16
CC(C)C[C@@H](C)C(=O)N(Cc1ccccc1)c1ccccc1 | 0.5% | -0.1 | / | / | -2% | 7
Cc1ccc(N(C)S(=O)(=O)c2cccc(C(=O)OCC(=O)c3c(N)n(C)c(=O)n(C)c3=O)c2)cc1 | / | 2.9 | -19% | / | -27% | 13
CC(NC(=O)C1CCN(S(=O)(=O)c2cccs2)CC1)c1cccc(Cl)c1 (configuration not stated) | -1.9% | -0.3 | 12% | / | -9% | 10
O=C(Nc1nnc(N2CCCCCC2)s1)Nc1ccccc1C(F)(F)F | 1.5% | 0.1 | / | / | / | -14
CCCNS(=O)(=O)c1ccc(CCC(=O)N2CCCCC2)cc1 | 0.4% | 1.5 | -13% | 0.0 | -7% | -14
Cn1nc(C(=O)Nc2ccc(S(=O)(=O)N3CCCC3)cc2)ccc1=O | 1.6% | 0.2 | 2% | -0.7 | 5% | 1
COc1cc2[nH]c(=O)n(Cc3ccc(C(=O)NC4CCN(Cc5ccccc5)CC4)cc3)c(=O)c2cc1OC | -18% | -0.1 | -3% | 0.4 | 1% | -7
c1ccc2c(c1)OCC(c1csc3ncnc(N4CCOCC4)c13)O2 (configuration not stated) | 1.2% | 0.5 | 23% | 0.1 | -14% | -3
